Assay outcomes from PubChem BioAssay.
Rango release inh: inhibition of RanGTP-driven Rango-importin beta dissociation; Biochemical FRET Rango-importin beta, RanGTP-induced dissociation; Potency, µM (series often up to 46.1 µM), for the others: top-dose activity change, negative = inhibition; hit rate 0.071% among 340,000; AID 540253; active means falling FRET ratio curve, often poorly fitted, with flat reads before Ran was added; inconclusive means other falling curves, or compound fluorescence or quenching; inactive means flat or rising ratio curve;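 note: potency is the fitted concentration of half-maximal effect; % of control where 0% means no effect; nearly all actives have a fitted effect of over 45% in size; -100% = wells without RanGTP and RCC1; the record marks most hits as doubtful in a second field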
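Rango FRET biosensor (snurportin-1 IBB flanked by N-terminal EYFP and C-terminal CFP10) at 0.1 uM, with 0.25 uM importin beta in PBS, 1mM DTT, 0.02% Tween-20, 0.1% BSA. 0.6 uM Ran, 2mM GTP and 0.2 uM RCC1 were then added for 45 min at room temperature. Inhibition read as loss of FRET rise.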
miR-21 reporter: raises the signal of a miR-21 reporter | 340,000 tested, under 10 active | HeLa miR-21 FLuc reporter, luciferase, 48 h | Potency, µM (doses to about 38.3 µM), for inactives: at the top dose reporter change, positive = more light | AID 2288; active = well fitted rising curve with a large enough effect; inconclusive = small, poorly fitted or top-dose-only effect; inactive = no such curve, though single readings can be large or run the other way;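 note: % of control where 0% means no effect; miR-21 action dims this reporter so a rising signal means less miR-21 action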
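Compounds were titrated across several concentrations (up to approximately 40 uM) and incubated 48 hours with HeLa miR-21-FLuc reporter cells (miR-21 target sequence downstream of FLuc, endogenous miR-21). Readout was firefly luciferase luminescence after lytic detection reagent.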
GLA inh pH 4.5: blocks human alpha-galactosidase A at pH 4.5; purified enzyme, 4-MU-alpha-Gal fluorescence, pH 4.5; 230,000 tested, under 10 active; activity change, negative = inhibition, % at 105 µM; inconclusive = small, poorly fitted or top-dose-only inhibition, or a rising curve; inactive = flat fitted curve, though single readings scatter; no compound was filed as active;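 note: 0% = full activity with enzyme and -100% = basal without enzyme; dose as in the result columns while the protocol names 77 µM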
Target sequence (P06280 whole entry, looked up): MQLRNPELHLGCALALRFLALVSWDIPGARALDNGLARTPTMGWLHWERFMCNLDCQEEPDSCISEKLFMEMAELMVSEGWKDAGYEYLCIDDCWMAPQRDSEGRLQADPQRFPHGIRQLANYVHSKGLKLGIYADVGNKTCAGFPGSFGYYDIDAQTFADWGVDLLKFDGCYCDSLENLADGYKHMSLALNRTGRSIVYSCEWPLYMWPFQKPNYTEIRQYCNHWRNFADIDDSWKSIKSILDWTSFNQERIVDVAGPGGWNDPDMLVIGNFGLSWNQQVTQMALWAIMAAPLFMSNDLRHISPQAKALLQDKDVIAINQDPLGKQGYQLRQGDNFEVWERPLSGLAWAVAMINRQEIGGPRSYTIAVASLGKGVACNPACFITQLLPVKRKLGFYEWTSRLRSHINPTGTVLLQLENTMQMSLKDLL
Rango complex inh: inhibitors of Rango-importin beta complex formation; AID 540263; Potency, µM (doses to about 92.2 µM), for inactives: top-dose inhibition of complex formation; hit rate 0.031% among 340,000; Rango CFP/YFP FRET sensor + importin beta, 45 min; active = rising FRET ratio curve, often small or poorly fitted; inconclusive = mostly compound fluorescence or quenching in the first reads; inactive = flat curves in all reads;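 note: potency is the fitted concentration of half-maximal effect; 0% = DMSO wells and 100% = buffer wells lacking importin beta; nearly all actives have a fitted effect of over 15% in size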
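FRET biosensor (snurportin 1 IBB flanked by EYFP and cerulean), 50 nM, with compound 5 min, then 0.125 microM importin beta in PBS, 1 mM DTT, 0.02% Tween-20, 0.1% BSA. CFP/YFP ratio read after 45 min at room temperature; pre-read flags interference.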
Active calls of the source: *; ? = inconclusive; / = no result given. These rows are one share of the data, so the mix of outcomes need not match the whole.

SMILES	Rango release inh	miR-21 reporter	GLA inh pH 4.5	Rango complex inh
O=C(NC(=S)Nc1nc2c(s1)CCCC2)c1ccc(C(=O)c2ccccc2)cc1	-11%	-6%	-1	5.1%
CN1CCN(CCC(=O)Nc2ccc(F)c(F)c2)CC1	1%	-9%	-3	0.3%
Cc1ccc(S(=O)(=O)n2[nH]c(=O)c(CCO)c2C)cc1	18%	-3%	4	2.4%
CCc1ccc(C(=O)N2CCN(c3ccc(NC(=O)c4cccnc4)cc3)CC2)cc1	-2%	5%	/	1.6%
O=C(CNC1CCN(Cc2ccccc2)CC1)Nc1ccc(S(=O)(=O)N2CCCCC2)cc1	10%	-3%	-6	1.4%
Cc1nc(SCC(=O)Nc2c(C)n(C)n(-c3ccccc3)c2=O)nc(C)c1C	-8%	1%	-3	-0.2%
COc1cccc(-c2nnc3sc(C4CCCCC4)nn23)c1	2%	26%	3	0.9%
O=C(Nc1ccc(F)cc1)Nc1nnc(Cc2ccccc2)s1	-7%	1%	/	0.5%
COc1ccc(-c2cc(=O)oc3cc(OC(C)C(=O)NC(Cc4c[nH]c5ccc(O)cc45)C(=O)O)ccc23)cc1 (configuration not stated)	-5%	1%	/	-2.0%
O=C(COc1ccccc1)N1CCN(S(=O)(=O)c2cccc([N+](=O)[O-])c2)CC1	-16%	-3%	-1	-0.8%
O=C(NCc1ccco1)C(=O)c1c[nH]c2ccccc12	1%	-51%	8	1.8%
COc1ccc(CCN=Cc2ccccc2O)cc1OC	6%	-6%	-1	?
Cc1ccnc(N2CCC(C(=O)NCc3ccc4c(c3)OCO4)CC2)n1	44%	-7%	-16	-2.3%
CC1CCCCN1c1nnc(NC(=O)c2cc(-c3ccc(Br)cc3)on2)s1 (configuration not stated)	14%	-1%	-2	-2.6%
CCOC(=O)c1[nH]c(C)c(C(=O)Nc2ccccc2F)c1C	19%	-17%	-8	?
Cc1noc(NS(=O)(=O)c2ccc(NC(=O)COc3ccccc3)cc2)c1C	-5%	2%	-9	-2.0%
Cc1cc(C)n(-c2ccc(Cl)c(C(=O)Nc3cc(C(F)(F)F)ccc3Cl)n2)n1	9%	0%	-7	-5.2%
COc1ccc(CCNC(=O)c2cccnc2SC)cc1	12%	2%	6	?
COc1ccc(CC(=O)Nc2cccc(C(=O)O)c2C)cc1	17%	-26%	-3	-4.9%
O=C(NCc1ccco1)c1nc(-c2ccccc2)n(-c2ccccc2)n1	4%	-4%	-2	-1.4%
CSc1ccc(/C=N\Nc2nncn2N)cc1	?	-15%	/	-2.9%
COc1cc(CN2CCN(C(=O)CC(C)C)CC2)c([N+](=O)[O-])cc1OC	-2%	8%	/	1.7%
Cc1ccc(S(=O)(=O)N(C)c2c(C)ccc(S(=O)(=O)NC(C)(C)C)c2C)cc1	-1%	12%	-2	-0.1%
COc1ccccc1NC(=O)CSc1nc2ccccc2c(=O)n1CC1CCCO1 (configuration not stated)	23%	-8%	/	0.6%

Structures above with a furan ring, fused or not:
SMILES	Rango release inh	miR-21 reporter	GLA inh pH 4.5	Rango complex inh
O=C(NCc1ccco1)C(=O)c1c[nH]c2ccccc12	1%	-51%	8	1.8%
O=C(NCc1ccco1)c1nc(-c2ccccc2)n(-c2ccccc2)n1	4%	-4%	-2	-1.4%

(further entries)
SMILES	Rango release inh	miR-21 reporter	GLA inh pH 4.5	Rango complex inh
CCN1CCCC1CNC(=O)c1ccc2c(=O)n(CCOC)c(=O)[nH]c2c1 (configuration not stated)	1%	2%	?	0.6%
O=C(NC1CCCC1)c1cc(S(=O)(=O)N2CCOCC2)c(Cl)cc1Cl	-4%	1%	7	-1.2%
Nc1c(C(=O)NCc2ccco2)nnn1CC(=O)Nc1ccc2c(c1)OCO2	27%	4%	15	-0.2%
O=C(NC1CCCC1)C(c1ccccn1)N(C(=O)c1csnn1)C1CCCC1 (configuration not stated)	-9%	-3%	3	-0.5%
COc1cccc(OC)c1C(=O)OCC(=O)NC(=O)NCc1ccccc1	-9%	-12%	-4	1.6%
Nc1ccccc1S(=O)(=O)c1ccccc1N	-2%	1%	-20	3.6%
Cc1cc(C(=O)OCC(=O)c2c(N)n(C)c(=O)n(C)c2=O)c(C)n1-c1ccccc1	4%	-6%	-3	-0.4%
c1ccc(-c2nc3ccccc3nc2-c2ccccn2)nc1	25%	2%	-2	?
O=C1c2ccccc2C(=O)N1Cc1nc2ccccc2c(=O)n1Cc1ccco1	-9%	0%	-14	-0.6%
FC(F)(F)c1cc(-c2cccs2)nc(NCc2ccco2)n1	9%	-3%	1	-3.3%
O=C(COC(=O)[C@@H]1CC(O)CN1S(=O)(=O)c1ccc2c(c1)OCCO2)NCc1ccc(F)cc1 (some centres not stated)	11%	-4%	-17	3.4%
O=C(NCCN1CCN(c2ccccc2)CC1)C1CCCN(S(=O)(=O)c2cnc[nH]2)C1 (configuration not stated)	17%	-7%	4	6.5%
C=CCn1c(N2CCN(c3ccc(OC)cc3)CC2)nc2c1c(=O)n(C)c(=O)n2C	12%	13%	20	?
Cc1cccc(NC(=O)NC2CCCCCCC2)c1C	8%	-10%	/	9.5%
COc1ccc(CC(=O)N(C)CC(=O)Nc2ccc(F)cc2)cc1S(=O)(=O)N1CCOCC1	-11%	/	/	2.4%
CCN(CCCNC(=O)CN1C(=O)COc2ccccc21)c1ccccc1	3%	0%	-2	3.2%
Cc1cc(S(=O)(=O)N2CCN(CC(=O)N(C)Cc3ccccc3)CC2)ccc1Br	-7%	/	/	-0.7%
O=C(NCC(=O)N1CCOCC1)c1ccc(Cl)cc1	-5%	-23%	/	-2.7%
Cc1ccc(NS(=O)(=O)c2ccc(C(=O)N3CCC3)cc2)cc1	3%	/	/	-0.6%
COc1ccc(N2CCN(C(=O)CSc3nc4ccccc4c(=O)[nH]3)CC2)cc1	-2%	5%	/	0.5%
C[C@H](CO)N1C[C@H](C)[C@@H](CN(C)S(=O)(=O)c2ccc(F)cc2)Oc2c(NC(=O)Nc3ccccc3)cccc2C1=O	12%	/	/	-1.4%
CCC(OC(=O)c1nsc(Cl)c1Cl)C(=O)NCCc1ccccc1 (configuration not stated)	2%	-5%	/	0.9%
Cc1ccc(/C(CSc2nccn2-c2ncc(C(F)(F)F)cc2Cl)=N\O)cc1	18%	5%	-5	-3.0%
O=C(O)C1CCCCC1C(=O)NCc1ccccc1 (configuration not stated)	?	-4%	5	2.8%

Taken from above.
For GLA inh pH 4.5, C=CCn1c(N2CCN(c3ccc(OC)cc3)CC2)nc2c1c(=O)n(C)c(=O)n2C is listed with 20
For miR-21 reporter, CCC(OC(=O)c1nsc(Cl)c1Cl)C(=O)NCCc1ccccc1 (configuration not stated) is listed with -5%
For Rango complex inh, Cc1ccc(/C(CSc2nccn2-c2ncc(C(F)(F)F)cc2Cl)=N\O)cc1 is listed with -3.0%
For Rango release inh, Cc1cccc(NC(=O)NC2CCCCCCC2)c1C is listed with 8%
For Rango complex inh, C[C@H](CO)N1C[C@H](C)[C@@H](CN(C)S(=O)(=O)c2ccc(F)cc2)Oc2c(NC(=O)Nc3ccccc3)cccc2C1=O is listed with -1.4%

Continuation:
SMILES	Rango release inh	miR-21 reporter	GLA inh pH 4.5	Rango complex inh
N#CCCN1CCN(S(=O)(=O)c2ccc(S(=O)(=O)NCc3ccccc3)cc2)CC1	-8%	-3%	5	-1.6%
CC1(C)N=C(N)NC(Nc2ccccc2)=N1	-11%	-1%	10	1.7%
Cc1cc(Cl)c2ccc3ccccc3c2n1	6%	-2%	6	-1.2%
COc1ccc(Cl)cc1NC(=O)C1CC(=O)N(C2CCCCC2)C1 (configuration not stated)	0%	-2%	/	-2.4%
CCNc1nc2c(c(=O)[nH]c(=O)n2C)n1CC(C)C	-22%	-6%	5	-1.8%
S=c1nc(C2COc3ccccc3O2)[nH][nH]1 (configuration not stated)	1%	-18%	6	1.1%
O=C(CSc1ccc(-c2cccnc2)nn1)Nc1ccccc1F	-10%	-5%	/	-0.8%
O=c1[nH]c2ccccc2n1C1=CCCC1	7%	-3%	-10	-0.5%
CCSc1nc(=S)cc(C)[nH]1	-18%	3%	-1	-0.2%
C[C@H]1CN([C@@H](C)CO)C(=O)c2cccc(NC(=O)Nc3ccc(C(F)(F)F)cc3)c2O[C@@H]1CN(C)C(=O)Nc1ccc(F)cc1	-10%	/	/	?
COC(=O)CNC(=O)CNC(=O)c1nn(-c2ccc(OC)c(OC)c2)c(=O)c2ccccc12	-5%	4%	/	-0.4%
O=C(COc1coc(CN2CCc3ccccc3C2)cc1=O)Nc1ccc(F)cc1	0%	/	/	-1.8%

Single records, as listed above.
O=C(COC(=O)[C@@H]1CC(O)CN1S(=O)(=O)c1ccc2c(c1)OCCO2)NCc1ccc(F)cc1 (some centres not stated) is listed as Rango release inh = 11%; miR-21 reporter = -4%; GLA inh pH 4.5 = -17; Rango complex inh = 3.4%
O=C(NCc1ccco1)c1nc(-c2ccccc2)n(-c2ccccc2)n1 is listed as Rango release inh = 4%; miR-21 reporter = -4%; GLA inh pH 4.5 = -2; Rango complex inh = -1.4%

The results go on.
SMILES	Rango release inh	miR-21 reporter	GLA inh pH 4.5	Rango complex inh
O=S(=O)(c1ccccc1)c1nc(NCc2ccccc2)sc1Cl	-4%	4%	-2	0.2%
Cc1ccc(S(=O)(=O)CCc2nnc(NC(=O)CCl)s2)cc1C	1%	11%	9	1.3%
O=C(c1cc2ncc(Br)cn2n1)N1CCOCC1	11%	2%	-2	-2.1%
O=C(NCc1ccccc1)N1CCN(c2ccc(F)cc2)CC1	-8%	-6%	-1	?
COc1ccc(CCNC(=O)c2ccccc2C(=O)NCCc2ccc(OC)cc2)cc1	-12%	/	/	-0.5%
O=C(CNC(=O)c1ccc(Br)cc1)c1ccccc1	0%	-42%	/	-0.2%
Cc1ccc(-c2nc(CSCC(=O)Nc3cc(C)on3)c(C)o2)cc1	1%	9%	2	4.5%
O=C(COC(=O)c1ccccc1F)Nc1cccnc1Cl	3%	1%	15	5.0%
c1ccc(CN(Cc2ccccc2)c2ncnc3c2nnn3Cc2ccccc2)cc1	-13%	-3%	-8	-2.2%
Cc1cccc(-n2ncc3c(Nc4c(C)n(C)n(-c5ccccc5)c4=O)ncnc32)c1	1%	0%	-4	-0.6%
Cc1nc2ccccc2c(=O)n1-c1ccc(NS(=O)(=O)c2cc(F)ccc2F)cc1	18%	/	/	4.2%
CCCCn1cnc2c(oc3nc4c(cc32)CCCC4)c1=O	5%	-24%	0	-2.7%
COc1ccc(C(=O)C(C)Oc2cccc(NC(=O)c3cccc([N+](=O)[O-])c3)c2)cc1 (configuration not stated)	-15%	1%	-13	-2.2%
C=CCNC(=O)c1onc(CSc2ccc(F)cc2)c1C(=O)O	7%	-10%	8	0.7%
CC1(C)CC(NC(=O)COc2ccc(Br)cc2Cl)CC(C)(C)N1	-2%	-7%	/	-0.8%
